# Source: PubChem (several laboratories)
# Bead autofluor: counter-screen for toxin protease inhibitors: compound fluorescence | hit rate 3.1% among 360,000 | compound autofluorescence counterscreen, microsphere flow cytometry; active compounds read high | fluorescence intensity (no concentration beside the values) | AID 624483;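 active means at least 3 SD above the mean of all compounds, about 16000 in these data; inconclusive means too few beads counted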;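 further: 100 nL of 1 mM stock went into each well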
# Mtb hypoxia inh: PubChem AID 1159583 | M. tuberculosis hypoxia-regulated fluorescent reporter, fluorescence | fluorescence inhibition, % (concentration not given with the values) | hit rate 0.1% among 300,000;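 active means 35 to 45% if threefold the growth effect, above 45% if 1.5-fold the growth effect; inactive means the rest, general growth blockers included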;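 further: wells of about 50 µL received 100 nL stock; 0% = vehicle wells and 100% = reference inhibitor wells; whole bacteria with a GFP reporter of the hypoxia response; strong numbers were not always called active; many hits fall short of the cut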
# ugtP null kill: growth inhibition of ugtP-null S. aureus, primary screen, RN4220 ugtP deletion, OD600. 16 h; some inactives read as strong as hits. growth inhibition, % (test concentration not listed). hit rate 0.54% among 330,000. AID 1259309, 2017;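 active means z-score under -3 and OD600 up to 0.15 on both plates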;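 further: plate controls were untreated wells for no effect and antibiotic for full effect; wells of about 80 µL received 100 nL stock; the first replicate is given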
# RN4220 kill: growth inhibition of S. aureus RN4220, primary screen, OD600; inhibition, % (test concentration not listed); 16 h; hit rate 0.33% among 330,000;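 active means z-score of -3 or lower and OD600 up to 0.18 on both plates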;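 further: plate controls were untreated cells for no effect and reference antibiotic for full effect; stock transfer was 100 nL into about 80 µL; one replicate is shown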
# BJeLR lethal: MLPCN primary cell-based screen for lethality selective to Ras in HRASV12 cells; hit rate 0.17% among 300,000; BJeLR (HRASV12) viability, CellTiter-Glo ATP luminescence, 48 h; reference of the scale not given here; AID 1554, 2009; inhibition, % (test concentration not listed);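 active means replicate mean above 50%; inconclusive means above 50% but judged a plate artefact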;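 further: 50 nL library stock added to about 25 µL; numbers are from one replicate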
# PrP 5UTR inh: inhibition of PrP 5' UTR reporter expression. cell-based PrP 5' UTR mRNA reporter, plate reader. inhibition, % (test concentration not listed). hit rate 0.35% among 340,000. AID 488862, 2010;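 active means every replicate at 50% or more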;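 further: 0 = median of the neutral control wells; tested in H4 reporter cells; numbers are from one replicate; inactives centre near -14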
# Mtb hypoxia inh growth: also measured in Mtb hypoxia inh; calls as there; growth inhibition, %; measured here: M. tuberculosis growth (absorbance);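 0% = vehicle and 100% = reference antibiotic; read after six days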
# Active calls of the source: *; ? = inconclusive; · = not tested or not shown.
SMILES,Bead autofluor,Mtb hypoxia inh,Mtb hypoxia inh growth,ugtP null kill,RN4220 kill,BJeLR lethal,PrP 5UTR inh
Cc1ccc(C(=O)NNC(=O)CSc2nnc(-c3ccccc3)n2Cc2ccccc2)cc1,2212,5,1,9,1.1,-20,-10
O=C(NCCC1CCCCN1S(=O)(=O)c1ccccc1)C(=O)NC1CCCC1 (configuration not stated),6724,3,-4,10,4.5,-3,-10
COc1ccc2c(c1)C13CCCC[C@@H]1C(C2)N(C)CC3 (some centres not stated),5642,·,·,·,·,-1,-5
O=C(CCc1nnc2ccc(NCc3ccc(F)cc3)nn12)NC1CCCC1,5183,0,-6,3,1.2,-2,-13
CC(=O)C1=C(O)CC(c2ccccc2)CC1=NCCc1c(C)[nH]c2ccccc12 (configuration not stated),5207,3,-2,4,2.9,1,-37
CC(C)n1nccc1N(Cc1ccc(Cl)cc1)S(=O)(=O)c1ccccc1,5557,-6,6,6,-1.7,-2,-4
CC1(C(=O)NNC(=O)c2ccc([N+](=O)[O-])cc2)CC1(Br)Br (configuration not stated),4191,-4,-1,1,1.9,-3,-3
NC(=O)C1CCN(C(=O)CSc2nc3ccccc3s2)CC1,2965,·,·,8,4.6,29,-10
CC(C)CC(=O)Nc1ccc2c(c1)nc(CCN1CCCCC1)n2C,2752,12,1,-3,2.7,-7,-30
O=S(=O)(NC1CC2CCC1C2)c1ccc(Cl)cc1 (configuration not stated),3136,3,4,4,2.9,-7,-8
O=C(NCc1cccnc1)c1cc(-c2ccccc2)on1,10622,8,0,8,5.1,5,-57
COc1ccc(C(C)=O)cc1CSc1nncn1C,3983,14,13,8,-2.5,-3,-11
CC(=O)Nc1ccc(S(=O)(=O)NC2CCSc3ccccc32)cc1 (configuration not stated),3279,3,-2,5,1.3,9,-5
O=C(Nc1nnc(S(=O)(=O)Nc2ccccc2)s1)c1ccccc1Cl,5715,6,8,8,18,-6,-3
COc1cc(OC)c(OC)cc1/C=C/C(=O)OCC(=O)Nc1c(C)n(C)n(-c2ccccc2)c1=O,4851,10,7,11,2.7,·,·
Cc1ccc(S(N)(=O)=O)cc1NC(=O)c1ccc2c3c(cccc13)CC2,·,1,-2,9,17,3,9
Cc1ccc(C(=O)NCC2CCCO2)cc1[N+](=O)[O-] (configuration not stated),2078,14,7,9,5.7,7,-28
CC1CN(S(=O)(=O)c2cccc(C(F)(F)F)c2)CC(C)O1 (configuration not stated),·,-2,2,6,3.5,0,·
COC(=O)c1ccc(C(=O)OC)c(NC(=O)CSCc2ccc(Cl)cc2)c1,·,4,6,-2,4.8,-9,-30
COc1ccc(-c2cc(C(=O)N(C)CC(=O)Nc3ccccc3Br)c3ccccc3n2)cc1OC,6138,6,4,15,4.7,10,-29
COc1cc(-c2nn3c(Cc4ccccc4)nnc3s2)cc(OC)c1OC,22616*,-6,15,-6,0.2,-2,-9
CC1(C)OC2OC(C(=O)NN=Cc3cc(Br)ccc3O)C3OC(C)(C)OC3C2O1 (configuration not stated),·,18,2,0,4.9,·,·
COc1ccc(-c2nnc(SCC(=O)/C(C#N)=C(\C)N)o2)cc1,24309*,19,13,-16,14,2,-106
Cc1ccccc1NS(=O)(=O)c1ccc(F)cc1,15732,-6,6,-6,4.2,-9,-14
COc1ccc(Nc2nc(N)nc(SCc3nnc(C)s3)n2)cc1,3450,0,-3,13,2.3,0,-26
CCOc1ccccc1C(=O)N[C@H](C(=O)OCC(=O)Nc1nnc(-c2ccccc2)o1)C(C)C,3956,10,-1,4,11,·,-10
Cc1c(C#N)sc(C(N)=O)c1C,2740,-2,-5,4,3.4,-1,7
COc1cccc(NC(=O)C(NCCC(C)C)c2ccccc2)c1 (configuration not stated),9704,11,6,-13,0.9,2,-25
COc1cccc(-c2nnc(SCC(=O)Nc3cc(C)ccc3OC)n2N)c1,4225,3,3,2,0.8,4,-23
COCCNC(=O)C(C)OC(=O)c1cc2occc2n1C (configuration not stated),9350,5,-1,-3,0.5,9,8
COc1ccc(-c2nn(-c3ccccc3)cc2/C=C2/SC(=S)N(CCCC(=O)O)C2=O)c(C)c1,3317,-1,3,72,53,1,-29
CCOc1ccc(/C=N/Nc2ccccc2)cc1,3613,·,·,·,·,9,-25
O=C(CCC(=O)Nc1nnc(C2CCCCC2)s1)Nc1ccc(F)cc1,5211,7,3,-1,0.3,-1,-17
COc1cccc(NC(=O)CS(=O)(=O)c2cccc3nsnc23)c1,5738,-16,-1,-4,-2.3,-1,-7
Cn1cccc1/C=N\NC(=O)C1COc2ccc(C(C)(C)C)cc2O1 (configuration not stated),5553,·,·,·,·,-8,-24
CCOC(=O)c1ccccc1NC(=O)c1cn(CC)c2nc(C)ccc2c1=O,4492,3,4,3,4.6,-3,2
COc1cc(NC(=O)c2ccccc2)c(OC)cc1NC(=O)CN1C(=O)NC2(CCCCC2)C1=O,3815,-7,6,-3,-1.8,·,-7
CC(=O)N(Cc1ccccc1)c1c(N)nc(N)[nH]c1=O,6323,11,1,3,1.2,-14,-14
OC1/C(=C/c2ccccc2C(F)(F)F)N2CCC1CC2 (configuration not stated),4319,3,-2,5,6.0,-17,0
COc1ccc(-c2c(C#Cc3ccsc3)c3cc(-c4ccc(CN5CCOCC5)cc4)ccc3n2C)cc1,4117,2,6,-1,-9.8,·,-5
CCCc1ccc(Oc2cc(C)nc(N3CCOCC3)n2)cc1,2445,3,4,40,4.1,-1,-20
CC1CCCC(C)N1N=Cc1ccccc1Br (configuration not stated),·,13,1,23,12,·,·
Cc1ccc(CNS(=O)(=O)c2ccc3c(c2)N(C)CCO3)cc1,4266,3,-3,7,6.0,-2,-15
Cc1ccc2nc(N3CCOCC3)c3nncn3c2c1,5850,10,9,-2,2.4,8,-7
CC(C)OCCCNC(=O)C1CCC(=O)N1C1CCCC1 (configuration not stated),9460,-1,3,-2,6.1,1,·
CCOC(=O)c1c(/N=C/c2ccc(C)cc2O)sc2c1CCN(C)C2,3427,·,·,·,·,-3,-27
Cc1ccc(NC(=S)N/N=C/c2c(C)nn(-c3ccccc3)c2N2CCCC2)cc1,2620,·,·,·,·,5,-11
O=C(NNS(=O)(=O)c1ccccc1Cl)C1COc2ccccc2O1 (configuration not stated),8568,-5,8,-3,-1.4,·,-12
CCOC(=O)Cc1c[nH]c2ccc([N+](=O)[O-])cc12,2850,16,9,7,4.8,·,-1
Cc1cc(C)n(-c2ccc(NC(=O)C3CCCCN3C(=O)c3ccc(C)s3)cc2)n1 (configuration not stated),4689,0,1,1,0.3,-3,-4
COC(=O)COc1ccc(S(=O)(=O)Nc2ccccc2C(=O)OC)cc1,10110,15,3,3,4.5,-11,-26
O=C(Nc1cccc(Cl)c1)NC1CC2CCC1C2 (configuration not stated),4236,32*,50*,2,2.6,-3,-40
Cc1cc(NC(=O)COn2nnc3ccc(Cl)cc32)no1,4681,·,·,-2,-3.8,5,-7
Cc1ccc(CNC(=O)CS(=O)(=O)Cc2nc(-c3ccc(C)cc3)oc2C)cc1,?,-4,-6,14,6.6,-1,4
CCOc1ccccc1-n1nnnc1SCC(=O)NCC1(N2CCOCC2)CCCCC1,3665,-1,10,-9,-2.6,·,2
COc1cccc(OCc2cc(C(=O)N3CCN(C(C)=O)CC3)no2)c1,4411,-5,-4,9,6.2,11,-43
O=C(NCC1OCCc2ccccc21)c1ccc(NC(=O)c2ccc(Cl)cc2)cc1 (configuration not stated),9163,·,·,·,·,21,2
COc1ccccc1CCC(=O)Nc1ccc2c(c1)CN(Cc1ccc(CO)o1)CC2,6336,4,10,1,1.1,0,-21
CC1CCC(CN2C(Nc3ccccc3)=NCC2C)CC1 (configuration not stated),·,5,8,-9,2.8,·,·
Cc1cc(S(=O)(=O)NCc2cccnc2)ccc1F,4010,·,·,·,·,4,-12

# (more compounds)
SMILES,Bead autofluor,Mtb hypoxia inh,Mtb hypoxia inh growth,ugtP null kill,RN4220 kill,BJeLR lethal,PrP 5UTR inh
COc1ccc(N2C(=O)C(C)C(Cc3ccc(C)cc3)C2=O)cc1 (configuration not stated),4189,10,0,11,1.1,5,-21
Cn1c(SCC(=O)Nc2ccc(F)cc2)nnc1-c1cccnc1,5250,-2,4,3,2.1,1,-10
CCCC(=O)Nc1ccc(C(=O)NN=Cc2cccnc2)cc1,·,13,6,6,3.7,·,·
COC(=O)c1c(C)[nH]c(C(=O)COC(=O)Cc2ccc3c(c2)OCCO3)c1C,9458,-2,10,-2,2.9,3,-14
CCOC(=O)N1CCN(C(=O)c2cn(C)c3ccc(S(=O)(=O)N4CCC(C)CC4)cc3c2=O)CC1,4067,2,-4,9,2.1,5,-18
S=C(c1ccccc1)N1CCCC1,4753,9,-2,-1,1.4,20,-11
COc1ccc2c(c1OC)C(=O)OC2Nc1nc(-c2ccc(-c3ccccc3)cc2)cs1 (configuration not stated),10818,2,-18,77,-11,-5,-68
COc1cc(OC)c(NC(=O)CCc2ccccc2)cc1Cl,?,-6,-4,-6,-1.2,-1,-22
C[n+]1c2n(c3ccccc31)N=C(c1ccc(Br)cc1)CS2,8615,7,18,78,3.1,23,-23
Cn1c(CNc2ccccn2)c(C#N)c2ccccc21,12164,1,-2,8,-3.3,6,-20
COc1ccc(C2C(C(N)=O)=C(C)Nc3nc(-c4ccccc4Cl)nn32)c(OC)c1 (configuration not stated),4484,·,·,9,2.9,-2,-11
Cc1nnc(SCC(=O)NNC(=O)c2ccco2)n1-c1ccccc1,4369,4,13,4,9.0,-16,-35
O=C(NC(Cc1ccccc1)C(=O)OCc1ccccc1)c1nc[nH]c1C(=O)N1CCN(c2ccccc2)CC1 (configuration not stated),·,-5,3,7,3.7,·,·
O=C(NCc1ccc(Cl)cc1)N1CCc2ccccc2C1,4798,10,10,6,-6.0,0,21
O=C(NCc1ccco1)C(c1cccnc1)N(C(=O)Cn1nnc2ccccc21)c1ccccc1 (configuration not stated),4608,·,·,2,1.5,2,-9

# Entries above containing a cyano group, in the order listed:
SMILES,Bead autofluor,Mtb hypoxia inh,Mtb hypoxia inh growth,ugtP null kill,RN4220 kill,BJeLR lethal,PrP 5UTR inh
COc1ccc(-c2nnc(SCC(=O)/C(C#N)=C(\C)N)o2)cc1,24309*,19,13,-16,14,2,-106
Cc1c(C#N)sc(C(N)=O)c1C,2740,-2,-5,4,3.4,-1,7
Cn1c(CNc2ccccn2)c(C#N)c2ccccc21,12164,1,-2,8,-3.3,6,-20

# As a working copy, some entries already given:
SMILES,Bead autofluor,Mtb hypoxia inh,Mtb hypoxia inh growth,ugtP null kill,RN4220 kill,BJeLR lethal,PrP 5UTR inh
O=C(NC(Cc1ccccc1)C(=O)OCc1ccccc1)c1nc[nH]c1C(=O)N1CCN(c2ccccc2)CC1 (configuration not stated),·,-5,3,7,3.7,·,·
O=C(NCc1ccc(Cl)cc1)N1CCc2ccccc2C1,4798,10,10,6,-6.0,0,21
O=C(NCc1ccco1)C(c1cccnc1)N(C(=O)Cn1nnc2ccccc21)c1ccccc1 (configuration not stated),4608,·,·,2,1.5,2,-9

# More compounds
SMILES,Bead autofluor,Mtb hypoxia inh,Mtb hypoxia inh growth,ugtP null kill,RN4220 kill,BJeLR lethal,PrP 5UTR inh
CCOc1ccc(S(=O)(=O)NCCC(=O)NCCc2ccc(C(C)C)cc2)cc1,6896,-7,4,-4,3.9,-12,-27
CC1(C)Cc2ccccc2-c2nc(NN)[nH]c(=O)c21,3176,3,4,11,6.2,-1,-15
CC(C)COc1ccc(-c2nn(-c3ccccc3)cc2/C=C2/SC(=S)N(CC(=O)O)C2=O)cc1,4811,10,3,71,98*,0,-28
CC1CCCCC12NC(=O)N(CC(=O)N1CCN(Cc3ccc(C#N)cc3)CC1)C2=O (configuration not stated),2996,4,4,9,6.2,·,-9
CC1CC(C)(C)CC2(C1)NC(=O)N(CC(=O)N1CCN(S(=O)(=O)c3ccc(F)c(F)c3F)CC1)C2=O (configuration not stated),3814,3,7,1,4.1,·,-2
S=C(NCCSCc1ccc(Cl)cc1Cl)Nc1ccccc1,3943,·,·,1,35,2,-3
CCOc1ccc2ccccc2c1/C=N/NC(=O)CNC(=O)Cc1ccccc1,2067,·,·,·,·,1,-6
CC(NC(=O)c1ccccc1)C(c1cccs1)N1CCOCC1 (configuration not stated),5610,4,10,-6,-12,1,-23
COc1cc(C2C3=C(Nc4ncnn42)c2ccccc2CC3)cc(OC)c1OC (configuration not stated),?,-3,-6,-1,-1.5,38,62*
